# Screening results: PubChem BioAssay, several laboratories
# Autofluor counter: compound fluorescence in toxin protease inhibitor counterscreen; compound autofluorescence counterscreen, microsphere flow cytometry; hits give high values; fluorescence intensity (test concentration not listed); 360,000 tested, 3.1% active;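 active = at least 3 SD above the mean of all compounds, about 16000 in these data; inconclusive = too few beads counted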;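 also: 100 nL of 1 mM stock went into each well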
# PrP UTR inh: inhibition of PrP 5' UTR reporter expression; cell-based PrP 5' UTR mRNA reporter, plate reader; inhibition, % (concentration not given with the values); 340,000 tested, 0.35% active; AID 488862;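 active = every replicate at 50% or more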;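 also: 0 = median of the neutral control wells; tested in H4 reporter cells; numbers are from one replicate; inactives centre near -14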
# Mtb hypoxia inh: Mtb hypoxia fluorescent reporter inhibition | M. tuberculosis hypoxia-regulated fluorescent reporter, fluorescence | fluorescence inhibition, % (test concentration not listed) | 300,000 tested, 0.1% active | AID 1159583;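 active = 35 to 45% if threefold the growth effect, above 45% if 1.5-fold the growth effect; inactive = the rest, general growth blockers included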;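 also: wells of about 50 µL received 100 nL stock; 0% = vehicle wells and 100% = reference inhibitor wells; whole bacteria with a GFP reporter of the hypoxia response; strong numbers were not always called active; many hits fall short of the cut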
# BJeLR lethal: BJeLR cell viability loss; 300,000 tested, 0.17% active; AID 1554; inhibition, % (concentration not given with the values); BJeLR (HRASV12) viability, CellTiter-Glo ATP luminescence, 48 h; reference of the scale not given here;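 active = replicate mean above 50%; inconclusive = above 50% but judged a plate artefact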;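 also: 50 nL library stock added to about 25 µL; numbers are from one replicate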
# Sa ugtP lethal: compounds lethal to S. aureus RN4220 ugtP deletion mutant; OD600 growth, 16 h; some inactives read as strong as hits; growth inhibition, % (concentration not given with the values); 330,000 tested, 0.54% active; AID 1259309;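 active = z-score under -3 and OD600 up to 0.15 on both plates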;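 also: plate controls were untreated wells for no effect and antibiotic for full effect; wells of about 80 µL received 100 nL stock; the first replicate is given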
# RN4220 kill: kills Staphylococcus aureus RN4220. 330,000 tested, 0.33% active. inhibition, % (no concentration beside the values). AID 1259311. S. aureus RN4220 growth, OD600, 16 h;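 active = z-score of -3 or lower and OD600 up to 0.18 on both plates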;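 also: plate controls were untreated cells for no effect and reference antibiotic for full effect; stock transfer was 100 nL into about 80 µL; one replicate is shown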
# Mtb hypoxia inh growth: recorded beside Mtb hypoxia inh, whose call it bears; growth inhibition, %; measured here: M. tuberculosis growth (absorbance);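 0% = vehicle and 100% = reference antibiotic; read after six days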
# The depositor's hits bear a star; ? = inconclusive; · = no result given.
# Preview:
SMILES,Autofluor counter,PrP UTR inh,Mtb hypoxia inh,Mtb hypoxia inh growth,BJeLR lethal,Sa ugtP lethal,RN4220 kill
S=C(c1c[nH]c2ccccc12)N1CCCC1,3164,-6,14,2,-9,2,-5.4
COc1cc(CC(=O)OCC(=O)c2ccc3c(c2)OCCO3)cc(OC)c1OC,3064,19,11,6,40,-3,-11
COc1cc(OC)cc(C(=O)NNC(=O)c2ccc(S(=O)(=O)N3CC(C)OC(C)C3)cc2)c1 (centres undefined),2512,-13,8,0,-3,12,6.6

# Results (from the top)
SMILES,Autofluor counter,PrP UTR inh,Mtb hypoxia inh,Mtb hypoxia inh growth,BJeLR lethal,Sa ugtP lethal,RN4220 kill
S=C(c1c[nH]c2ccccc12)N1CCCC1,3164,-6,14,2,-9,2,-5.4
COc1cc(CC(=O)OCC(=O)c2ccc3c(c2)OCCO3)cc(OC)c1OC,3064,19,11,6,40,-3,-11
COc1cc(OC)cc(C(=O)NNC(=O)c2ccc(S(=O)(=O)N3CC(C)OC(C)C3)cc2)c1 (centres undefined),2512,-13,8,0,-3,12,6.6
O=C(Nc1ncc(Cc2cccc(Cl)c2)s1)c1ccc([N+](=O)[O-])cc1,2219,-17,·,·,-8,·,·
COC(=O)C1CSC(C(=O)OC)N1C(=O)CN1CCN(c2ccccc2)CC1 (centres undefined),4504,5,13,1,·,11,9.0
Cc1cccc(C(=O)NCCC(=O)NCc2ccccc2F)c1,3714,-9,1,3,·,0,-1.3
CCN(CC)C(=O)CSc1nc2ncc(Cl)cc2[nH]1,2795,-23,·,·,-1,-6,2.7
O=C(c1cc(-c2ccc(Cl)cc2)n[nH]1)N1CCN(C(=O)c2ccco2)CC1,5612,-12,-6,1,-14,-4,-3.2
Cc1ccc(-n2nc3c(=O)n(CC(=O)NCc4ccccn4)nc(C)c3c2C)cc1,5243,-7,2,9,-2,3,1.0
C/C(C=NNC(=O)c1cc(C)oc1C)=C/c1ccccc1,·,·,3,4,·,17,1.6
CC(=NNC(=O)COc1ccc(C(C)(C)C)cc1)c1cc2ccccc2o1,·,·,8,10,·,-14,4.3
O=C(c1cn(CC(=O)N2CCCCC2)c2ccccc12)C1CC1,10196,1,-2,2,-4,-1,2.3
Cc1ccc(N(C(C)C(=O)N2CCCCC2)S(C)(=O)=O)cc1C (centres undefined),22154*,-33,-4,3,-8,2,3.8
COc1ccc(/C=N/Nc2nc(-c3cccc(S(=O)(=O)N4CCCC4)c3)cs2)c(OC)c1,2029,-5,·,·,-10,·,·
CSCCC(NS(=O)(=O)c1cccc(C(F)(F)F)c1)C(=O)N(C)Cc1ccc2c(c1)OCCO2 (centres undefined),5520,-7,·,·,2,·,·
CN(CC(=O)Nc1ccccc1Br)C(=O)c1ccccc1OCc1ccc(Cl)cc1,3410,-32,-1,4,·,-1,11
O=C(COC(=O)c1ncc(Cl)c(Cl)c1Cl)Nc1ccccc1OC(F)F,1984,-11,-6,16,4,-4,-3.8
O=C(c1nn2c(C(F)(F)F)cc(-c3cccs3)nc2c1Br)N1CCCc2ccccc21,2108,12,-1,7,3,10,8.5
CS(=O)(=O)Nc1ccc(S(=O)(=O)N2CCCC2)cc1,4553,-6,5,4,-3,4,1.8
CCOc1cc(/C=C2\N=C(SCC)SC2=O)cc([N+](=O)[O-])c1OC(C)=O,2643,-22,1,0,5,22,37
COc1ccc2cc(C#N)c(SCC(=O)NNC(=O)Cc3ccccc3)nc2c1,19935*,-26,3,1,-5,-4,1.0
COc1cc(-c2c(-c3ccc4c(c3)OCO4)noc2-c2ccsc2)ccc1F,4048,-19,10,9,5,87*,-5.7
COc1cccc(CNC(=O)c2ccc(C)c(NC3=NC4CS(=O)(=O)CC4S3)c2)c1 (centres undefined),4556,-1,-2,12,-1,4,7.1
COc1nc(-c2ccncc2)nc2ccccc12,4246,-20,10,5,6,-6,7.1
Cc1[nH]n(C)c(=O)c1C(=O)c1c(-c2ccccc2Cl)noc1C,3368,-3,14,7,-4,7,1.1
COc1ccc(CCn2c(=N)c(C(=O)NCC3CCCO3)cc3c(=O)n4ccccc4nc32)cc1OC (centres undefined),5737,-20,-6,0,-2,2,3.1
Cc1cc(C)nc(SCNC(=O)c2ccc(F)cc2)n1,3036,-12,14,6,-5,3,4.1
CS(=O)(=O)c1cccc(C(=O)OCC(=O)c2ccc3c(c2)OCCO3)c1,5399,-8,9,4,·,1,3.7
O=C(Nc1ccc(CN2CCOCC2)cc1)c1cccc(-c2cc3ccccc3oc2=O)c1,4284,-7,2,4,0,6,12
CCOc1ccc(/C=N/OCC(=O)NCc2ccc3c(c2)OCO3)cc1OC,2575,-30,·,·,3,·,·
Cc1ccc(OCc2ccc(-c3ccccc3)cc2)c([N+](=O)[O-])n1,6624,-49,10,-3,-1,7,-1.6
COC(=O)CNC(=O)c1c(-c2ccccc2Cl)noc1C,2239,4,·,·,-14,7,5.2
CCOC(=O)[C@]12Cc3cc(OC)c(OC)cc3C1N(Cc1ccccc1)C(=O)c1ccccc12 (some centres undefined),·,·,-3,1,·,23,4.4
CN(C)C=Nc1ncnc2c1cnn2-c1ccc(C(F)(F)F)cn1,·,·,8,5,·,10,2.9
Cc1cccc(C)c1NC(=O)C(Cl)=C(Cl)Cl,2422,-15,8,10,-1,12,1.2
O=C(O)C(c1ccccc1)c1ccccc1,4009,-12,·,·,-4,0,2.1
Cc1sc2nc(C)n(N=Cc3ccccc3O)c(=O)c2c1C,·,·,7,3,·,4,4.2
CCC1=NN2C(=N)/C(=C/c3c(C)nn(-c4ccccc4)c3Cl)C(=O)N=C2S1,2176,5,7,11,7,2,6.2
CCC(C)NC(=O)CCS(=O)(=O)c1ccc(Br)s1 (centres undefined),2059,-10,·,·,-3,9,-1.4
Cc1ccc(S(=O)(=O)/N=C(\Nc2cc(C)on2)c2ccc(Cl)cc2)cc1,7991,-40,·,·,3,·,·
Cc1nc2cc(S(=O)(=O)N(C)C)ccc2n1-c1ccccc1,3219,-18,6,6,5,2,-0.4
CCC1CCCCN1C(=O)CN1C(=O)CSC1=O (centres undefined),3521,-6,·,·,-7,1,3.3
CC1CC(=O)N(c2ccc(C(C)C)cc2)C(=O)C1,3184,2,-9,-12,0,1,3.3
O=[N+]([O-])c1ccccc1/C=N/Nc1nnc(-c2ccccc2)c(-c2ccccc2)n1,2183,-14,·,·,1,·,·
O=C(Nc1ccnn1C1CCN(C(=O)c2c(F)cccc2F)CC1)C1CC1,6213,-6,3,5,4,2,3.6
COc1ccccc1C(=O)OCC(=O)NC12CC3CC(CC(C3)C1)C2,5367,-2,5,9,·,1,3.6
CN1c2ccccc2C(=O)C(=C2SCCCS2)S1(=O)=O,4029,-27,6,8,0,10,4.4
COc1ccccc1-c1nnc(SC(C)C(=O)Nc2ccc(C(N)=O)cc2)o1 (centres undefined),?,-17,7,0,12,-1,1.7
Cc1ccccc1N/C(SCc1cccc(Br)c1)=C(/C#N)C(N)=O,2536,-4,4,3,3,11,8.2
CCc1ccc(/C=N/NC(=O)c2cc(C)on2)s1,2134,-24,·,·,3,·,·
Cc1ccc(NC(=O)c2nc[nH]c2C(=O)N[C@@H](C)C(=O)OC(C)(C)C)cc1,3922,4,·,·,-7,·,·
CCN(Cc1nc(-c2ccccc2)no1)C(=O)COc1cccc(OC)c1,3457,19,-3,-2,-5,-4,-2.2
CCOC(=O)C1=C(COC(=O)c2ccc([N+](=O)[O-])s2)NC(=O)NC1C (centres undefined),6443,-19,17,-6,·,2,15
C(=N\N=C\c1cccnc1)/c1cccnc1,2287,-31,·,·,-1,·,·
CN(CC(=O)Nc1ccc(N2CCOCC2)cc1)C(=O)C12CC3CC(CC(C3)C1)C2,?,-21,2,7,-2,1,1.0
CN1CCN(CC(=O)C23CC4CC(CC(C4)C2)C3)CC1,4283,-12,17,12,0,2,2.8
[N-]=[N+]=CC(=O)C(c1ccccc1)(c1ccccc1)c1ccccc1,3900,-38,8,5,-7,11,4.3
CS(=O)(=O)CCC(C(=O)OCC(=O)c1ccc(Cl)cc1)N1C(=O)c2ccccc2C1=O (centres undefined),9094,-40,0,0,-4,15,5.0
O=C(OCCCN=C1NS(=O)(=O)c2ccccc21)c1ccc([N+](=O)[O-])cc1,3666,-21,1,4,-1,0,12
CCOC(=O)C1C2COc3ccc(Cl)cc3C2N2C(=O)CN(Cc3ccco3)C(=O)[C@@]12C (some centres undefined),·,·,7,9,·,0,4.1

# The listing continues.
SMILES,Autofluor counter,PrP UTR inh,Mtb hypoxia inh,Mtb hypoxia inh growth,BJeLR lethal,Sa ugtP lethal,RN4220 kill
CCC(=NNc1ccnc2cc(Cl)ccc12)c1ccc(O)cc1,·,·,2,-1,·,-7,5.7
COc1ccc2nc(SCC(=O)N(C)C3CCCCC3)[nH]c2c1,3108,-41,17,7,·,15,3.1
CC(C)Cn1c(SCc2nc3ccccc3c(=O)[nH]2)nc2ccccc2c1=O,19467*,-16,-14,-10,-8,-5,1.8
Cc1cccc(OP(N)(N)=O)c1C,4409,-15,4,3,9,2,-0.1
Cc1n[nH]c(=S)n(NC(=O)CC(=O)Nn2c(=S)[nH]nc(C)c2=O)c1=O,4355,-6,11,9,1,8,2.0
CCCNC(=O)Cn1cnc2sc(C(=O)N3CCN(c4ccc(F)cc4)CC3)c(C)c2c1=O,20571*,-4,2,8,-1,5,6.6
O=C1C2C(C(=O)N1/N=C/c1cc([N+](=O)[O-])c(O)cc1O)C1C=CC2C12CC2 (centres undefined),2408,-16,·,·,12,·,·
CC(=NNC(=O)CN1CCN(S(=O)(=O)c2ccc(C)cc2)CC1)c1ccncc1,·,·,14,5,·,8,3.7
O=C(NNC(=S)NC1CCCCC1)c1ccc(Cl)s1,4543,-38,·,·,6,6,12
COc1ccc(C)cc1NC(=O)n1ncc2c(C)cccc21,3102,-15,11,-1,-3,9,-0.6
O=C(NC1CCN(C(=O)Nc2ccc(F)cc2)CC1)c1ccc(F)cc1,5199,-12,8,2,-11,9,2.8
CCn1c(SCC(N)=O)nnc1-c1cc2c(C)nn(-c3ccccc3)c2s1,23213*,6,-8,-3,-2,-1,7.0
CCCC(=O)n1nc(-c2ccc(OC)cc2)nc1N,2470,-15,6,3,4,3,8.6
Cn1c(=O)[nH]c(=O)c2c1nc(Br)n2CC=NNC(=O)c1ccccc1,·,·,-7,10,·,-1,-0.3
Cc1ccccc1OCC(=O)Nc1ccc(C(=O)Nc2ccccc2C(=O)O)cc1,5609,-8,20,29,-1,11,3.5
CC(=O)c1ccc(S(=O)(=O)NCC(=O)Nc2nc3ccccc3[nH]2)cc1,3847,-7,-5,-2,·,-8,-1.0
Cc1ccc(-n2c(O)c(C=Nc3cc(C)on3)c3ccccc3c2=O)c(C)c1,2622,-10,-6,3,9,-8,-1.3

# Arranged by count of non-hydrogen atoms (smallest number first): part of the list above
SMILES,Autofluor counter,PrP UTR inh,Mtb hypoxia inh,Mtb hypoxia inh growth,BJeLR lethal,Sa ugtP lethal,RN4220 kill
CCCC(=O)n1nc(-c2ccc(OC)cc2)nc1N,2470,-15,6,3,4,3,8.6
CCC(=NNc1ccnc2cc(Cl)ccc12)c1ccc(O)cc1,·,·,2,-1,·,-7,5.7
CC(=O)c1ccc(S(=O)(=O)NCC(=O)Nc2nc3ccccc3[nH]2)cc1,3847,-7,-5,-2,·,-8,-1.0
Cc1ccc(-n2c(O)c(C=Nc3cc(C)on3)c3ccccc3c2=O)c(C)c1,2622,-10,-6,3,9,-8,-1.3
CC(=NNC(=O)CN1CCN(S(=O)(=O)c2ccc(C)cc2)CC1)c1ccncc1,·,·,14,5,·,8,3.7
Cc1ccccc1OCC(=O)Nc1ccc(C(=O)Nc2ccccc2C(=O)O)cc1,5609,-8,20,29,-1,11,3.5
